Assay outcomes from PubChem.
MgrA DNA FP: S. aureus MgrA-DNA binding modulation | inhibition, %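 (about 10 µg/mL by stock and volumes)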 | fluorescence polarization | hit rate 0.13% among 84,000;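 active means above 50% in either of two replicates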;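 further: 0% = protein plus DNA without compound and 100% = DNA alone without protein; higher means less MgrA bound to DNA so lower polarization; one replicate is shown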
S aureus helic: blocks Staphylococcus aureus DNA helicase | purified S. aureus helicase, fluorescence unwinding assay; about half of the hits fall short of the stated cut | hit rate 0.05% among 120,000 | inhibition, %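 (tested at about 80 µM)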;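 active means both duplicates at 50% or more, or one of them with a favoured structure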;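 further: 0% = mean of negative control wells and 100% = mean of positive control wells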
Starred values were filed as active, the others as inactive; nt = not tested or not shown; & = joins results of further samples.

MgrA DNA FP | S aureus helic | Molecule
0.8 | nt | O=C1CCC(c2ccccc2)C(O)=C1C=Nc1cccnc1 (stereo not given)
3.7 | 10 | c1ccc(C2=NC2c2ccccc2)cc1 (stereo not given)
-0.3 | nt | CN(C)C(=O)Nc1ccccc1
nt | 8&21 | Cc1[nH]c2ccccc2c(=O)c1CN(C)C
-0.4 | nt | N#Cc1c(N)nc(SCC(=O)c2cc3ccccc3oc2=O)c(C#N)c1-c1cccs1
3.9 | -14 | CCN(CC)C(=O)c1sc2nc3c(cc2c1N)C1CCN3CC1
nt | -4 | Cc1ccc(NS(=O)(=O)c2ccccc2C(F)(F)F)cc1C
nt | -3 | O=C(c1cc(C2CC2)[nH]n1)N1CCN(c2cccc(C(F)(F)F)c2)CC1
nt | -36 | c1nnc2c3c4c(sc3ncn12)CCC4
1.1 | 9 | CCOC(=O)c1[nH]cnc1C(=O)Nc1ccc(C)cc1
-1.3 | 3 | CC(C)(C)c1ccc(C(=O)n2cnnc2N)cc1
1.1 | 8 | COC(CNC(=S)Nc1ccc(Cl)cc1)OC
nt | 7 | Cc1cc(C)cc(NC(=O)CNCC(F)(F)F)c1
0.2 | nt | COC(=O)c1scc(S(C)(=O)=O)c1N
nt | 14 | c1ccc(-c2ccc3c(c2)c2c4n3CCNC4CCC2)cc1 (stereo not given)
4.0 | 11 | N=C(N)SCc1nc(N)nc(N2CCCCC2)n1
-0.5 | 6 | CCn1c(=O)cc(OCC(=O)N(C)c2ccccc2F)c2ccccc21
nt | -37 | O=C(CCCn1c(=O)c2sccc2n(Cc2ccc(F)cc2Cl)c1=O)NCc1ccco1
0.5 | nt | COc1cc([N+](=O)[O-])c(OC)cc1SCC(=O)NNC(=O)c1cccc(C)c1
7.2&1.9 | nt | NS(=O)(=O)c1cc2c(cc1C(F)(F)F)NCNS2(=O)=O
-0.9 | 17 | CCCN(CCC)C(=O)Cc1ccc(F)cc1
nt | 9 | CC(C)CC1NC(=O)N(Cc2ccc(CN3C(=O)NC(CC(C)C)C3=O)cc2)C1=O (stereo not given)
-1.4 | 2 | Cc1ccc2c(c1)c1nc3ccccc3nc1n2Cc1ccccc1
3.2 | nt | S=C(Nc1cc(Cl)ccc1Cl)Sc1ccc(Cl)cc1
-1.8 | 9 | CSc1nnc(C2CCCN(CC(=O)NCc3cccs3)C2)n1C (stereo not given)
2.0 | 10 | COC(=O)Cn1c(SCc2ccccc2)nc2ccccc21
0.0 | 11 | CCC(=O)n1cnc2ccccc21
1.3 | 11 | CCSc1nc2c(c(=O)[nH]1)C(c1ccncc1)C(C(=O)OC)=C(C)N2 (stereo not given)
nt | 9 | CCc1ccc2[nH]c3nc4ccccc4nc3c2c1
nt | -25 | Cc1ccc(Nc2nc(C)cc(C)c2C#N)cc1
-3.8 | 1 | CN(CCO)Cc1ccc2c(c1)OCO2
nt | 9 | O=C(c1ccccc1)N1CCN(C(=O)c2ccc3c(c2)OCO3)CC1
nt | -148 | N#CC(C1=NS(=O)(=O)c2ccccc21)c1nc2ccccc2n1Cc1ccccc1 (stereo not given)
-2.3 | nt | N#Cc1c(Cl)cccc1N1CCC(C(=O)NC(=O)Nc2ccc(Cl)cc2)CC1
nt | -20 | O=C(OCc1nc2ccccc2s1)c1cccs1
0.6 | 6 | CCc1ccccc1Nc1cc(C(=O)NCc2cccnc2)c2ccccc2n1
-0.8 | nt | CCCCCCC(C)OC(=O)c1ccccc1C(=O)O (stereo not given)
-1.1 | nt | COc1cc(N(C)C)c([N+](=O)[O-])cc1C(=O)NCCN1CCN(C)CC1
8.9 | 6 | CCOc1ccc(NC(=O)Cc2cccc3c(S(=O)O)cccc23)cc1
-1.5 | nt | CCOC(=O)c1ccc2[nH]c(C(=O)OCC)c(CCC(=O)O)c2c1
nt | -3 | Cn1nc(C(=O)Nc2ccc3c(c2)OC2(CCCC2)O3)ccc1=O
nt | 15 | CCn1ncc(C2=NOC(C(=O)N3CCCc4ccccc43)C2)c1C (stereo not given)
nt | -10 | CCOC(=O)c1oc2ccc(Br)cc2c1CSc1nnc(C(F)(F)F)n1C
-2.9 | nt | Cc1cccc(C)c1-n1nnnc1-c1cnccc1C(F)(F)F
0.2 | nt | O=C(SCc1ccco1)c1csc(C2COc3ccccc3O2)n1 (stereo not given)
nt | 26 | Cc1ccc(S(=O)(=O)NCC(=O)NN=C2CCCCC2)cc1
3.2 | -6 | Cc1ccc(Nc2ccc3ncnc4c3c2C(=O)c2ccccc2-4)cc1
nt | 5 | O=C1CC2(CCN(C(=O)C3CCCC3)CC2)Oc2ccccc21
nt | 10 | CC1CN(CCO)Cc2ccc(Cl)cc21 (stereo not given)
0.2 | 14 | CCOC(=O)N1CCC(NC(=O)CS(=O)(=O)Cc2nc(-c3ccc(C)cc3)oc2C)CC1
-0.5 | nt | COc1cc(C2NC(=O)N(C)C(C)=C2C(=O)OCCOc2ccccc2)cc(Cl)c1O (stereo not given)
0.2 | 2 | CCN1CCSc2ccc(C(=O)NCc3ccco3)cc21
nt | -12 | CSc1ncccc1C(=O)OCCN1C(=O)c2ccccc2C1=O
nt | 6 | O=C(Cc1ccccc1)Nc1nccs1
nt | -3 | COC(=O)c1ccc(NCN2C(=O)C3CC=CCC3C2=O)cc1 (stereo not given)
nt | 0 | O=C(COc1cccc(Br)c1)OCCN1C(=O)c2ccccc2C1=O
0.3 | 5 | O=C1CN(C(=O)CCC(=O)c2cccs2)c2ccccc2N1
nt | 14 | CC(C)CNc1ncnc2nc[nH]c12
-1.6 | nt | C/C(=N\NC(N)=O)c1ccccc1
0.6 | 14 | O=C(O)C1CC=CCC1C(=O)NCc1ccccc1 (stereo not given)

Other structures follow.
MgrA DNA FP | S aureus helic | Molecule
nt | 9 | C=CCOc1ccc(-c2nc3c(sc(=S)n3C)c(=O)[nH]2)cc1OC
nt | 14 | Cc1nc(-c2cccs2)sc1C(=O)OCc1cc(=O)n2c(C)csc2n1
0.6 | -1 | COCCn1c(CCC(=O)NCc2ccc(OC)cc2)nc2cccnc21
7.4 | nt | O=C(O)CCNC(=S)Nc1cccc(F)c1
nt | -51 | CCc1ccc(C2C(C#N)=C(N)SC(N)=C2C#N)cc1
-2.2 | 16 | O=C1CC(c2ccco2)Cc2nc(NCc3ccccc3)ncc21 (stereo not given)
1.5 | nt | CC(=O)SC1CC(=O)N(c2c(C)cccc2C)C1=O (stereo not given)
nt | 4 | CCCCn1c(CCC)nc2ccccc21
-1.4 | 7 | COc1ccc(/C=C/C(=O)NCCCN2CCCCCC2)cc1
nt | 5 | O=C1CC(=O)NC(SCC(=O)Nc2nc(-c3ccccc3)cs2)=N1
3.5 | 6 | CC(CC(=O)NCc1ccccc1)CC1=NS(=O)(=O)c2ccccc2N1 (stereo not given)
41* | nt | Cc1nc2ccccn2c1-c1ccnn1C(=O)c1ccno1
5.1 | -8 | Cc1cc(C)c2c(C(=O)O)cc(=O)[nH]c2c1
1.1 | 18 | CNC(=O)c1sc2nc(C)cc(C)c2c1-n1cccc1
-3.8 | -24 | O=C(COC(=O)c1ccncc1)NCc1ccccc1
0.8 | 2 | Cc1cc(NC(=O)OC2CCCC2)ccc1NC(=O)OC1CCCCC1
nt | 24 | COc1ccc(N2CCN(c3cc(C)nc4ccc(OC)cc34)CC2)cc1
2.9 | nt | Cc1cc(C)n(-c2ccc(-n3cccc3/C=C(/C#N)S(=O)(=O)c3ccccc3)cc2)n1
-4.2 | 3 | Cc1c(Cl)cccc1NC(=S)NCC(c1ccccc1)c1c[nH]c2ccccc12 (stereo not given)
2.1 | 10 | COc1nc(NCc2ccccc2)nc(NC2CCCCC2)n1

7 entries picked at random from the list so far:
MgrA DNA FP | S aureus helic | Molecule
nt | 14 | Cc1nc(-c2cccs2)sc1C(=O)OCc1cc(=O)n2c(C)csc2n1
nt | -51 | CCc1ccc(C2C(C#N)=C(N)SC(N)=C2C#N)cc1
nt | 24 | COc1ccc(N2CCN(c3cc(C)nc4ccc(OC)cc34)CC2)cc1
2.9 | nt | Cc1cc(C)n(-c2ccc(-n3cccc3/C=C(/C#N)S(=O)(=O)c3ccccc3)cc2)n1
7.4 | nt | O=C(O)CCNC(=S)Nc1cccc(F)c1
41* | nt | Cc1nc2ccccn2c1-c1ccnn1C(=O)c1ccno1
-1.4 | 7 | COc1ccc(/C=C/C(=O)NCCCN2CCCCCC2)cc1

New compounds follow.
MgrA DNA FP | S aureus helic | Molecule
3.0 | -5 | O=S(=O)(Nc1ccc(N2CCOCC2)cc1)c1ccccc1
nt | 23 | COC1(NS(=O)(=O)c2ccc(C)cc2)C(C)=CC(=O)C=C1C
nt | -4 | CCN(CC(=O)NCc1cccs1)C(=O)c1cccc(OC)c1
-1.4 | nt | O=C(NC1CCCc2ccccc21)c1ccccc1 (stereo not given)
0.8 | 8 | O=C(CSc1cccc[n+]1[O-])c1ccc2ccccc2c1
1.9 | 5 | Cc1c(C)c2ccc(O)c(CN(C)C)c2oc1=O
nt | 1 | CCCCN(C)C(=O)Cn1cc(S(=O)(=O)NC)c(S(=O)(=O)NC)c1
nt | 8 | COC(=O)C1=CN(C)C=C(C(=O)OC)C1c1ccc(C(F)(F)F)cc1
1.4 | -7 | O=C(NCC1CCN(c2ccc(S(=O)(=O)N3CCOCC3)cc2)CC1)c1ccccc1
2.9 | 22 | CC1(C)CC2CC(C)(CN2c2ncnc3ccccc23)C1 (stereo not given)
nt | 10 | CCN(CC)c1ncnc2c1ncn2Cc1c(Cl)cccc1Cl
nt | 19 | CSc1nccc(-c2cccs2)n1
nt | 7 | CC(C)NC(=S)NNc1ccc(C(=O)O)cc1
nt | 12 | Cc1nn(-c2ccccc2)c2sc(C(=O)N3CCc4ccccc4C3)cc12
nt | 4 | CCOC(=O)c1c(NC(=O)CSc2nnc3sc4ccccc4n23)sc(C(=O)N(CC)CC)c1C
nt | 11 | CCC(Sc1nnnn1-c1ccccc1)C(=O)Nc1ccccc1OC (stereo not given)
nt | 4 | O=C(CN1C(=O)c2cccc3cccc1c23)Nc1ccc(S(=O)(=O)Nc2ccccc2)cc1
-5.1 | 9 | COc1ccc(Cc2nnc(SCC(=O)N3CCCC3)o2)cc1
2.8 | 9 | Cc1ccc(-c2nn3c(C)nnc3c3ccccc23)cc1S(=O)(=O)NCc1ccco1
2.8 | nt | Clc1ccc(-c2csc(-c3ccno3)n2)s1
0.4 | 19 | Cn1ncc2c1ncn1nc(-c3ccccc3)nc21
nt | -11 | O=C(CCc1c[nH]c2ccccc12)NCC1CCCO1 (stereo not given)
-1.1 | 9 | Cc1cc(=O)oc2cc(OCC(=O)O)ccc12
-0.7 | 3 | c1ccc(C[n+]2cccc(-c3ccccc3)c2)cc1
1.6 | 12 | COc1ccc2nc(SCC(O)c3ccccc3)[nH]c2c1 (stereo not given)
nt | -8 | COc1ccccc1NC1=NC2CS(=O)(=O)CC2S1 (stereo not given)
nt | -39 | O=c1c2ccccc2c(-c2ccc(Cl)cc2)nn1CN1CCOCC1
0.6 | 15 | Nc1ccc(N2CCOCC2)cc1C(F)(F)F
nt | -5 | CC(C)c1cccc(C(C)C)c1NC(=O)CNC(C)(C)C
nt | 18 | OC(COc1ccccc1)CN1CCN(Cc2ccc(Cl)cc2)CC1 (stereo not given)
3.2 | nt | CCOC(=O)C1=C(C)N=c2s/c(=C\c3cc(Br)ccc3O)c(=O)n2C1c1ccccc1 (stereo not given)
-4.7 | 4 | COc1ccccc1N1CCN(Cc2ccc(C(=O)NC(C)C)cc2)CC1
-1.2 | nt | Cc1ccc2ncc(-c3ccc(Cl)c(C)c3)nc2c1
nt | -44 | CCCCOC(=O)c1cccc(NC(=O)C(C)C)c1
2.5 | nt | COC(=O)c1ccc(S(=O)(=O)NCc2ccccc2)n1C
nt | 33 | Cc1ccccc1N1C(=O)c2ccccc2C1Nc1ccc2c(c1)OCCO2 (stereo not given)
0.9 | 3 | C=CCn1c(OCc2ccccc2)n[nH]c1=S
0.7 | nt | CCCc1cc(=O)oc2c1c(C)nn2-c1ccccc1
-1.1 | 12 | O=C(COC(=O)Cc1ccc(Br)cc1)NCC1CCCCC1
0.8 | -2 | Cc1ccc(C)c(N/C=C/C(=O)C(C)(C)C)c1
nt | 13 | Cc1ccc2[nH]c(C)c(CCC(=O)NC3CCCCC3)c2c1
nt | -12 | CC(=O)N1CCN=C1SCc1ccc(C)cc1
nt | 10 | CCN(CC)C(=O)CSc1nc(-c2ccc(F)cc2)nc2c1Cc1c(CO)cnc(C)c1O2
-1.0 | 4 | CCCc1c(O)nc(SCc2ccccc2)[nH]c1=O
nt | -5 | CCN(CC(=O)NCc1ccc(F)cc1)C(=O)c1cc(=O)[nH]c2ccccc12
11 | 10 | CCN1/C(=C\C(=O)C2CC2)Sc2ccccc21
-13 | 11 | Cc1ccc2oc(-c3cc(NC(=O)C(C)C)cc(C)c3O)nc2c1
0.2 | 11 | S=C(NCCN1CCOCC1)Nc1ccc(Nc2ccccc2)cc1
-3.5 | nt | Cc1c(-c2cc(N)n(C)n2)sc2ccc(Cl)cc12
nt | -289 | Cc1ccc(-n2c(O)c(/C=N/Nc3nc4cc(S(=O)(=O)N5CCOCC5)ccc4o3)c3ccccc3c2=O)c(C)c1
-0.4 | 12 | CCN(CC)c1ccc(CNC(CC(=O)O)c2c[nH]c3ccccc23)cc1 (stereo not given)
3.4 | 13 | CCc1c(C)sc(NC(=O)c2noc3c2CC(C(C)(C)C)CC3)c1C#N (stereo not given)
-0.7 | -1 | C=CCn1c(SCC(=O)Nc2ccc(F)cc2)nc2ccccc2c1=O
nt | 0 | NNC(=O)Cn1cc(C(F)(F)F)ccc1=O
1.2 | 6 | Cc1cc(C(=O)NC2CCCCC2)no1
-1.4 | 16 | O=C(OCCN1CCOCC1)c1ccccc1
2.2 | nt | CCOC(=O)c1c(-c2ccccc2)oc2c1cc(OC(=O)c1ccccc1C)c1ccccc12

An excerpt of these results, as labelled records.
CC(CC(=O)NCc1ccccc1)CC1=NS(=O)(=O)c2ccccc2N1 (stereo not given)
  MgrA DNA FP: 3.5; S aureus helic: 6
Cc1nc2ccccn2c1-c1ccnn1C(=O)c1ccno1
  MgrA DNA FP: 41*; S aureus helic: nt
Cc1cc(C)c2c(C(=O)O)cc(=O)[nH]c2c1
  MgrA DNA FP: 5.1; S aureus helic: -8
CNC(=O)c1sc2nc(C)cc(C)c2c1-n1cccc1
  MgrA DNA FP: 1.1; S aureus helic: 18

Some of the compounds tested (hit frequency here may not be typical).
